# Rango dissoc inh: qHTS Assay for Inhibitors of RanGTP induced Rango (Ran-regulated importin-beta cargo) - Importin beta complex dissociation; Snurportin-1 (Homo sapiens) + GTP-binding nuclear protein Ran (Homo sapiens) + Importin …; Biochemical FRET Rango-importin beta, RanGTP-induced dissociation; Potency, µM (series often up to 46.1 µM), inactives show at the highest dose activity change, negative = inhibition; 340,000 compounds, 0.071% hits; active means falling FRET ratio curve, often poorly fitted, with flat reads before Ran was added; inconclusive means other falling curves, or compound fluorescence or quenching; inactive means flat or rising ratio curve;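 note: potency is the fitted concentration of half-maximal effect; % of control where 0% means no effect; nearly all actives have a fitted effect of over 45% in size; -100% = wells without RanGTP and RCC1; the record marks most hits as doubtful in a second field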
#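 Recombinant Rango FRET biosensor (EYFP–snurportin 1 IBB–cerulean CFP10) at 0.1 uM premixed with 0.25 uM importin beta in PBS, 1 mM DTT, 0.02% Tween-20, 0.1% BSA. Compound added 5 min; RanGTP-RCC1 (0.6 uM Ran, 2 mM GTP, 0.2 uM RCC1) then triggers release, read at 45 min.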
# GLA inh pH 4.5: qHTS Assay for Inhibitors of Human alpha-Galactosidase at pH 4.5. Alpha-galactosidase A (Homo sapiens), P06280. purified enzyme, 4-MU-alpha-Gal fluorescence, pH 4.5. AID 1467, 2008. activity change, negative = inhibition, % at 105 µM. 230,000 tested, under 10 active; inconclusive = small, poorly fitted or top-dose-only inhibition, or a rising curve; inactive = flat fitted curve, though single readings scatter; no compound was filed as active;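 note: 0% = full activity with enzyme and -100% = basal without enzyme; dose as in the result columns while the protocol names 77 µM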
# miR-21 reporter: qHTS Assay for Modulators of miRNAs and/orActivators of miR-21. HeLa miR-21 FLuc reporter, luciferase, 48 h. Potency, µM (series often up to 38.3 µM), for inactives: top-dose reporter change, positive = more light. 340,000 tested, under 10 active. AID 2288, 2010; active = well fitted rising curve with a large enough effect; inconclusive = small, poorly fitted or top-dose-only effect; inactive = no such curve, though single readings can be large or run the other way;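 note: % of control where 0% means no effect; miR-21 action dims this reporter so a rising signal means less miR-21 action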
#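 HeLa cells endogenously expressing miR-21, stably carrying CMV-driven firefly luciferase with a downstream miR-21 binding site, 2000 cells/well. Titrations up to approximately 40 uM, 48 hours; luciferase luminescence read.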
# Rango complex inh: qHTS Assay for Inhibitors of Rango (Ran-regulated importin-beta cargo) - Importin beta complex formation | Importin subunit beta-1 (Homo sapiens), Q14974 | Rango CFP/YFP FRET sensor + importin beta, 45 min | Potency, µM (top dose mostly 92.2 µM), for the others: at the top dose inhibition of complex formation | 340,000 compounds, 0.031% hits | AID 540263, 2011; active = rising FRET ratio curve, often small or poorly fitted; inconclusive = mostly compound fluorescence or quenching in the first reads; inactive = flat curves in all reads;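 note: potency is the fitted concentration of half-maximal effect; 0% = DMSO wells and 100% = buffer wells lacking importin beta; nearly all actives have a fitted effect of over 15% in size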
# Target sequence (Q14974 whole entry, looked up): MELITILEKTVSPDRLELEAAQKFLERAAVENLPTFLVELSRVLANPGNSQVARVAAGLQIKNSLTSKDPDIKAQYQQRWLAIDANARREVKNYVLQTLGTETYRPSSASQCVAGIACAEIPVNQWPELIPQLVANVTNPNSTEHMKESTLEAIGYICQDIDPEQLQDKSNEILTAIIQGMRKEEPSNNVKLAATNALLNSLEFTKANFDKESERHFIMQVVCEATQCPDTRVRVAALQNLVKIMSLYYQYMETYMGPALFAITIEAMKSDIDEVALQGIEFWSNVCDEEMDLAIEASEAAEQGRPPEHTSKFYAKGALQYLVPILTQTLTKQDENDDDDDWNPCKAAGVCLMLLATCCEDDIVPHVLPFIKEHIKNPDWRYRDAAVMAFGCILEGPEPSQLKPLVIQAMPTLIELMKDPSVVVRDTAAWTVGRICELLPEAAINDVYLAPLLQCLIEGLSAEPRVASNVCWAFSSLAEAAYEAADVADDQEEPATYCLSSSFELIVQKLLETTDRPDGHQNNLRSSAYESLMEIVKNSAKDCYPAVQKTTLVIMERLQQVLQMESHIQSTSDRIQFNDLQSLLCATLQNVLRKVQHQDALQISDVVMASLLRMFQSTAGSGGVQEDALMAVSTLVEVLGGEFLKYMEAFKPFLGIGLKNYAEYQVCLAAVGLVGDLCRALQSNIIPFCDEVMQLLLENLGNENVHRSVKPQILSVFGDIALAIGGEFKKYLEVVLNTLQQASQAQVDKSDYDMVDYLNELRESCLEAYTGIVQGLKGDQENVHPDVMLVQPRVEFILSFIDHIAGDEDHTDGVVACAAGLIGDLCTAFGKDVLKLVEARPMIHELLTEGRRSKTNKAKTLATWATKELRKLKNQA
#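 Inhibition scored from the CFP 486 nm/YFP 530 nm FRET ratio 45 min after adding 0.125 microM importin beta to 50 nM Rango biosensor preincubated 5 min with compound (room temperature, PBS with DTT, Tween-20, BSA). No-importin wells as positive control.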
# Active calls of the source: *; ? = inconclusive; . = not tested or not shown; & = joins results of further samples. Only part of the results is shown (hit frequency here may not be typical).
Rango dissoc inh,compound,GLA inh pH 4.5,miR-21 reporter,Rango complex inh
8%,Cc1cc(C)cc(C(=O)NCC(=O)OCC(=O)N2c3ccccc3NC(=O)C2(C)C)c1,-17,1%,-1.1%
-1%,Cc1ccc([N+](=O)[O-])cc1S(=O)(=O)Nc1cccc(-c2ccc(N3CCOCC3)nn2)c1,.,.,-2.2%
-4%,CCn1c(SCC(=O)Nc2sc3c(c2C#N)CCCC3)nnc1-c1ccco1,-4,6%,-1.5%
-16%,O=C1CC(c2ccco2)CC(O)=C1C=Nc1cc(Cl)cc(Cl)c1 (stereo not drawn),10,-2%,-0.6%
1%,COc1ccc2c(c1)[C@H]1[C@H](CO2)[C@H](c2ccccc2)[C@]2(C)C(=O)N[C@H](C)C(=O)N12,.,.,-0.9%
7%,COC(=O)/C=C/c1ccc(-n2ccnc2)cc1,-10,-24%,-0.3%
-22%,Cc1cc(C)nc(NN2C(=O)/C(=C/c3ccccc3)SC2=S)n1,-22,1%,3.6%
.,Cn1c(-c2nnn(-c3ccc(F)cc3)n2)cc2ccccc21,-1,-56%,.
0%,CCCCc1nc2ccccc2[nH]1,-6,-6%,0.5%
-2%,Cc1ccc(NC(=O)C2CCN(S(=O)(=O)c3cc([N+](=O)[O-])ccc3Cl)CC2)nc1,.,.,-0.5%
1%,CCCCNC(=O)c1cc2c(=O)n3cccc(C)c3nc2s1,.,-14%&-6%,?
-18%,O=C1CCCN2N=C(SCC(=O)Nc3ccc(Br)cc3)SC2=N1,.,9%,-2.6%
-7%,COc1ccc(Cl)cc1N(C(C)=O)c1nc(C)cc(C)c1C#N,.,4%,-1.3%
21%,CN(Cc1c(C(=O)N/N=C/c2ccccc2)nnn1-c1nonc1N)c1ccccc1,.,-8%,5.0%
-26%,O=c1[nH]nnc2c1sc1nc(N3CCOCC3)c3c(c12)CCCC3,.,.,2.0%
12%,COC(=O)[C@]1(Cc2ccccc2)N[C@H](CN(C)C(=O)Nc2ccc(F)cc2)[C@@H]2C(=O)N(C)C(=O)[C@@H]21,.,.,-0.6%
?,Cc1cc(C(F)F)n2nc(C(=O)Nc3ccc(S(=O)(=O)N4CCCCCC4)cc3)nc2n1,.,.,-1.0%
4%,CCOc1ccc(NC(=O)C/C(C)=N/NC(=O)COc2ccc(Br)cc2C)cc1,.,-4%,3.5%
-15%,CSc1ncccc1C(=O)OCC(=O)N1CC2(C)CC1CC(C)(C)C2 (stereo not drawn),.,.,-0.7%
13%,CCS(=O)(=O)c1ccc(O)c(NC(=O)Nc2cccc3ccccc23)c1,-6,-7%,-0.2%
-10%,COc1ccc(-c2nc(-c3ccc(C(=O)O)cc3)no2)cc1,.,.,-5.1%
2%,Cn1cnnc1SCC(=O)Nc1ccccc1F,3,-1%,-3.5%
14%,CN(CCO)c1nc(N)c(C#N)c(CC#N)c1C#N,-7,-2%,1.6%
6%,O=C(/C=C/c1ccc([N+](=O)[O-])cc1)NCc1ccco1,5,-30%,-0.7%
4%,Cc1ccccc1NC(C)C(=O)N/N=C/c1ccccc1OCc1cccc(Br)c1 (stereo not drawn),-7,6%,-0.1%
0%,CCOc1ncccc1C(=O)Nc1cc(S(=O)(=O)N(CC)CC)ccc1N1CCOCC1,.,.,-2.3%
-4%,CCS(=O)(=O)n1nc(-c2ccccc2)nc1NCc1ccco1,2,-48%,0.8%
1%,CCOc1ccc(CCNC(=O)CS(=O)(=O)Cc2nc(-c3ccc(OC)cc3)oc2C)cc1,.,1%&3%,-1.1%
0%,CCC(c1nnnn1CCc1ccccc1)N1CCN(c2ccc(OC)cc2)CC1 (stereo not drawn),-7,-3%,0.8%
-2%,COc1ccc(C(C(=O)NC(C)(C)C)N(C(=O)CCC(=O)Nc2cc(C)on2)c2ccccc2F)cc1 (stereo not drawn),.,-1%,1.7%
34%,Cc1cc2oc(=O)cc(-c3ccccc3)c2c(C)c1-c1ccc(C(F)(F)F)cc1,-11,.,-3.6%
?,O=C(CCc1ccccc1)c1nnc(-c2ccccc2)o1,4,-25%,0.4%
-7%,Cc1ccc(-n2nc3ccc(NC(=O)/C=C/c4ccco4)cc3n2)cc1,-6,-22%,?
21%,Cc1cc(C)n2nnnc2n1,-2,0%,-1.7%
-17%,O=C(O)C(Cc1c[nH]c2ccccc12)N1C(=O)c2ccccc2C1=O (stereo not drawn),-6&1,-1%&1%,1.4%
-19%,CCCCn1nnnc1SCC(=O)c1cc(Cl)ccc1OC,-2,-9%,-0.4%
-8%,O=C(Nc1cccnc1)c1cccnc1Cl,-6,-4%,0.1%
3%,NC(=S)N=Nc1c(O)n(Cc2ccc(F)cc2)c2ccccc12,-4,-13%,2.9%
1%,CSc1ccccc1NC(=O)COc1nsnc1N1CCOCC1,.,-8%,-1.3%
-7%,Cc1ccc2nc3n(c(=O)c2c1)CCCCC3,-5,-40%,-0.8%

# Single records, from the list above. Order of values: Rango dissoc inh	GLA inh pH 4.5	miR-21 reporter	Rango complex inh
# Results for `CSc1ccccc1NC(=O)COc1nsnc1N1CCOCC1` = 1%	.	-8%	-1.3%
# Results for `Cc1ccc(-n2nc3ccc(NC(=O)/C=C/c4ccco4)cc3n2)cc1` = -7%	-6	-22%	?
# Results for `O=C(Nc1cccnc1)c1cccnc1Cl` = -8%	-6	-4%	0.1%
# Results for `CCCCn1nnnc1SCC(=O)c1cc(Cl)ccc1OC` = -19%	-2	-9%	-0.4%

# Carrying on:
Rango dissoc inh,compound,GLA inh pH 4.5,miR-21 reporter,Rango complex inh
-24%,O=C(N/N=C/c1ccc(O)cc1)Nc1cccc2nsnc12,-28,-33%,-2.4%
2%,Cc1cc(C)n2nc(SCC(N)=O)nc2n1,2,-1%,-0.2%
-5%,CCOC(=O)c1nonc1NC(C)=O,-6,-3%,-0.1%
0%,CCc1ccc(S(=O)(=O)NCc2cccnc2)cc1,.,3%,-1.8%
-26%,O=C(/C=C/c1ccccc1)NCCS(=O)(=O)N1CCN(c2ccccc2F)CC1,.,.,0.5%
10%,CN1C[C@@H]2C(c3ccc(Cl)nc3)C3(c4ccc(C#N)cc4)CC2(C3)[C@H]1c1ccccc1 (stereo partly drawn),-6&-5,15%,4.5%
10%,CCC(CO)Oc1cc(NC(=O)c2ccccc2F)c2ncn(C(C)C)c2c1 (stereo not drawn),.,.,?
0%,O=C(OCCN1CCN(c2ncc(C(F)(F)F)cc2Cl)CC1)c1ccc(Cl)cc1,-9,-1%,1.9%
21%,Cc1[nH]n(-c2nc(-c3ccc(Cl)cc3)cs2)c(=O)c1N=Nc1ccc(O)cc1,2,-20%,0.1%
-22%,O=C(c1ccc([N+](=O)[O-])s1)N1CCN(c2ccc(C(F)(F)F)cn2)CC1,.,5%,2.8%
-7%,Clc1ccc(CCNc2ncnc3c2nnn3Cc2ccccc2)cc1,.,0%,-2.8%
11%,O=C(CCc1ccccc1)Nc1ccncc1,2,-3%,2.9%
0%,CCc1cccc(OCC(=O)Nc2ccc(S(=O)(=O)Nc3ccccn3)cc2)c1,12,-3%,-0.6%
1%,O=C(Nc1ccc(Br)cc1Cl)NC1CC1,5,-9%,4.0%
2%,COc1cccc(C(N)=O)c1,.,.,1.0%
0%,CCOC(=O)C(=O)Nc1ccc(Oc2ccccc2)cc1,-11,0%,-1.2%
1%,O=C(Nc1cc(Cl)ccc1N1CCOCC1)c1ccco1,.,4%,3.0%
1%,CCOc1ccccc1-c1nn2c(Cc3ccccc3)nnc2s1,-7,-7%,0.8%
0%,COc1cc2c(cc1OC)C(C(=O)Nc1ccccn1)C(c1cccnc1)N(C)C2=O (stereo not drawn),3,-3%,-2.2%
-15%,COc1ccccc1Cn1c(=S)[nH]c2cc(C(=O)NCCN(C)C)ccc2c1=O,.,-1%,5.2%
6%,CN(CC(=O)Nc1ccccc1Cl)C(=O)CN1C(=O)C2CC=CCC2C1=O (stereo not drawn),.,.,1.8%
3%,CC(C)(C#N)Nc1ccccc1,3,-2%,1.5%
3%,CCn1nc(C)c(CN2CCN(Cc3cccc(OC)c3)C(CCO)C2)c1C (stereo not drawn),-6,-4%,-1.0%
-4%,CSc1nnc(-c2ccc(F)cc2)o1,-5,-15%,-2.0%
?,CC(=O)NC(O)C(=O)c1ccccc1 (stereo not drawn),0,-7%,3.6%
14%,CC1CCN(C(=O)C2CCN(CC(C)c3ccccc3)CC2)CC1 (stereo not drawn),-3,-3%,-0.3%
0%,O=C(COC(=O)c1cc2c(s1)CCCCC2)NC1CCS(=O)(=O)C1 (stereo not drawn),.,.,-2.3%
2%,COC(=O)c1ccc(OCCOc2ccc(C(=O)OC)cc2)cc1,10,-2%,-1.3%
-12%,CCOc1ccccc1OCC(=O)Nc1cccc(S(=O)(=O)NC2=NCCCCC2)c1,.,.,-0.1%
26%,CC1(C)C(=O)OC(/C=C\c2cccc([N+](=O)[O-])c2)C(C)(C)C1=O (stereo not drawn),6,-4%,0.1%
5%,CCOC(=O)C1=C(C)N(C)C(=O)NC1c1cccc2ccccc12 (stereo not drawn),.,3%,3.4%
0%,CCS(=O)(=O)N1Cc2ccccc2CC1C(=O)N(C)Cc1ccc(OC)cc1OC (stereo not drawn),.,-1%,-5.1%
-17%,CC(=O)c1ccc(NC(=O)C(C)OC(=O)c2ccc(NS(=O)(=O)c3ccc4[nH]c(=O)[nH]c4c3)cc2)cc1 (stereo not drawn),.,.,0.6%
?,CCOC(=O)C1=C(c2ccccc2)N=c2s/c(=C\c3ccco3)c(=O)n2C1c1cccs1 (stereo not drawn),6,-15%,?
5%,CN(C(=O)CSc1nc(-c2ccc(F)cc2)cs1)C1CCS(=O)(=O)C1 (stereo not drawn),0,-8%,-0.7%
?,CCOc1ccccc1NC(=O)CSc1nnc(CNC(=O)c2ccco2)o1,4,0%,-0.7%
-1%,CCOc1cc(C(=O)Nc2cc(OC)cc(OC)c2)ccc1OCC(=O)N1CCOCC1,.,.,-1.1%
4%,CC(=O)OCCCN1C(=O)c2ccc(Br)cc2C1=O,4,-2%,-1.8%
-4%,Cc1cc(F)ccc1S(=O)(=O)NCC1CC2CCC1C2 (stereo not drawn),.,5%,-1.0%
-2%,CCOc1ccc(NC(N)=O)cc1OCC,0,-6%,5.2%
1%,C[C@@H]1CN(S(=O)C(C)(C)C)[C@H](CCO)/C1=C\CCO (stereo partly drawn),.,.,-6.3%
1%,CN(CC(=O)N1CCc2ccccc21)S(=O)(=O)c1ccc(Cl)cc1,-2,-8%,-2.5%
?,O=C1c2cccc3c([N+](=O)[O-])ccc(c23)C(=O)N1Cc1cccnc1,7,?,?
2%,COc1ccc(OC)c(CN2CCN(C(=O)c3cccc4ccccc34)CC2)c1,-12,4%,4.0%
13%,CC(C)c1cccc(OCCN2CCCC2)c1,.,-9%,-0.8%
5%,NC(=O)c1ccc(NC(=O)COC(=O)CC2CC3CCC2C3)cc1 (stereo not drawn),.,.,0.8%
0%,Cc1cc(SCC(=O)OCC(=O)NCc2ccc3c(c2)OCO3)c(C)cc1Br,-2,-3%,0.1%
-3%,COCC(=O)N(C)C1(c2nnnn2CCOC(=O)Nc2cccc3ccccc23)CCCC1,5,-4%,-1.1%
-7%,C/C(=N\NC(=O)OC(C)(C)C)c1ccccc1Br,5,-67%,0.1%
-11%,CC(C)CCn1c(O)c(N=Nc2ccccn2)c2ccccc21,-2,-10%,1.9%
10%,Cc1ccc(S(=O)(=O)N2CCCCC2c2cccnc2)c(C)c1C (stereo not drawn),-1,21%,-1.3%
-7%,COc1ccc(Nc2cc(C)c3ccccc3n2)cc1,4,-79%,2.1%
-14%,COc1ccc(CNC(=O)CCSCc2ccccc2C)cc1,-15,2%,7.3%

# High-throughput results as filed in PubChem.
